Bioassay records deposited in PubChem BioAssay by several laboratories.
Mtb hypoxia inh: Mtb hypoxia fluorescent reporter inhibition | hit rate 0.1% among 300,000 | fluorescence inhibition, % (concentration not given with the values) | AID 1159583 | M. tuberculosis hypoxia-regulated fluorescent reporter, fluorescence;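 active means 35 to 45% if threefold the growth effect, above 45% if 1.5-fold the growth effect; inactive means the rest, general growth blockers included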;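 further: wells of about 50 µL received 100 nL stock; 0% = vehicle wells and 100% = reference inhibitor wells; whole bacteria with a GFP reporter of the hypoxia response; strong numbers were not always called active; many hits fall short of the cut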
BJeLR lethal: kills HRASV12-expressing BJeLR cells | BJeLR (HRASV12) viability, CellTiter-Glo ATP luminescence, 48 h; reference of the scale not given here | inhibition, % (concentration not given with the values) | hit rate 0.17% among 300,000 | AID 1554;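 active means replicate mean above 50%; inconclusive means above 50% but judged a plate artefact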;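 further: 50 nL library stock added to about 25 µL; numbers are from one replicate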
RN4220 kill: S. aureus RN4220 growth inhibition; OD600, 16 h; inhibition, % (test concentration not listed); AID 1259311; hit rate 0.33% among 330,000;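 active means z-score of -3 or lower and OD600 up to 0.18 on both plates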;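 further: plate controls were untreated cells for no effect and reference antibiotic for full effect; stock transfer was 100 nL into about 80 µL; one replicate is shown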
ugtP null kill: kills S. aureus RN4220 lacking UgtP; hit rate 0.54% among 330,000; growth inhibition, % (test concentration not listed); AID 1259309; S. aureus RN4220 ugtP deletion, OD600 growth, 16 h; some inactives read as strong as hits;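 active means z-score under -3 and OD600 up to 0.15 on both plates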;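 further: plate controls were untreated wells for no effect and antibiotic for full effect; wells of about 80 µL received 100 nL stock; the first replicate is given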
Autofluor counter: counter-screen for toxin protease inhibitors: compound fluorescence. compound autofluorescence counterscreen, microsphere flow cytometry; hits give high values. fluorescence intensity (concentration not given with the values). hit rate 3.1% among 360,000. AID 624483;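 active means at least 3 SD above the mean of all compounds, about 16000 in these data; inconclusive means too few beads counted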;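 further: 100 nL of 1 mM stock went into each well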
PrP UTR inh: inhibition of PrP 5' UTR reporter expression; cell-based PrP 5' UTR mRNA reporter, plate reader; AID 488862; hit rate 0.35% among 340,000; inhibition, % (test concentration not listed);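 active means every replicate at 50% or more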;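 further: 0 = median of the neutral control wells; tested in H4 reporter cells; numbers are from one replicate; inactives centre near -14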
Mtb hypoxia inh growth: second read-out of Mtb hypoxia inh, no call of its own (marks repeat the call); growth inhibition, %; measured here: M. tuberculosis growth (absorbance);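 0% = vehicle and 100% = reference antibiotic; read after six days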
Active calls of the source: *; u = inconclusive; x = no result given.

SMILES	Mtb hypoxia inh	Mtb hypoxia inh growth	BJeLR lethal	RN4220 kill	ugtP null kill	Autofluor counter	PrP UTR inh
CCN(CC)C(=S)SCC(=O)Nc1cccc(C(F)(F)F)c1	4.5	5.5	3.5	6.8	4.7	2391	-15.0
N#CCCN(C(=O)CSc1nc2nc(-c3cccs3)cc(C(F)(F)F)c2c(=O)[nH]1)c1ccccc1	14.4	3.5	-0.9	2.5	11.8	4517	-13.1
CCOC(=O)C(NC(=O)Nc1ncccn1)(Oc1ccccc1)C(F)(F)F (stereo unspecified)	x	x	3.4	19.2	-2.5	3659	-10.4
CC(C)N(C(=O)CSc1n[nH]c(=O)n1CCc1ccccc1)C(C)C	9.2	1.6	-1.1	-0.2	11.1	3386	-24.2
O=C(COc1ccc(F)cc1)Nc1nccs1	1.4	4.7	2.2	1.7	5.2	5972	-71.3
CCOC(=O)c1nc(C)n(-c2ccc(Cl)cc2Cl)n1	-2.9	0.1	-5.2	1.7	-0.2	5783	0.0
O=C(Nc1ccccc1N1CCOCC1)c1ccc2c(c1)C(=O)N(Cc1ccncc1)C2=O	-0.5	4.0	-7.4	-3.2	-5.5	2701	-23.8
CC(=O)N1CC(C)Sc2ccc(S(=O)(=O)NCCc3ccc(C)cc3)cc21 (stereo unspecified)	7.2	1.5	8.3	3.7	9.9	5777	-10.8
OC1C2CCC1C(N1CCCCC1)CC2 (stereo unspecified)	-1.9	-5.9	x	0.4	-8.1	x	x
COc1ccc(NC(=O)c2ccc([N+](=O)[O-])cc2[N+](=O)[O-])c(OC)c1	-3.8	16.8	-2.7	-1.3	-1.2	3788	-18.1
COc1cccc(/C=N/n2c(-c3ccco3)nc3ccccc3c2=O)c1OC	x	x	1.8	x	x	2549	-25.5
C#CCOCCOCCOCCNc1nc(N2CCOCC2)nc(N2CCN(C(=O)C(C(C)CC)n3cc(CCCCN)nn3)CC2)n1 (stereo unspecified)	-0.8	6.3	x	2.6	-7.7	x	x
COc1ccccc1N(Cc1cc(=O)[nH]c2ccccc12)C(=O)c1ccc([N+](=O)[O-])cc1	2.4	4.3	7.2	2.7	3.2	4503	-13.7
O=C(c1cc(COc2cccc(C(F)(F)F)c2)on1)N1CCc2ccccc2C1	2.1	2.4	8.5	-0.3	-4.6	4426	-6.4
COc1ccc(CN(C)C(=O)CNC(=O)c2sc3ccccc3c2Cl)c(OC)c1OC	11.4	8.6	x	1.8	6.0	3922	-13.4
CCOC(=O)N1CCN(C(=O)CN(Cc2ccc(Cl)cc2)S(=O)(=O)c2ccc(C)cc2)CC1	1.9	-3.1	-2.1	4.8	-1.6	24719*	-24.1
Cn1cccc1/C=C1/C(=O)NC(=O)N(C(C)(C)C)C1=O	1.1	-2.6	4.7	-0.6	-3.0	4093	-13.4
Cn1c(N)c(C(=O)CCl)c(=O)n(C)c1=O	8.8	12.3	-5.2	5.2	0.1	3679	5.4
CC1(C)OC2C(CO)OC(n3cnc4c(N)ncnc43)C2O1 (stereo unspecified)	7.3	0.8	x	3.9	-0.3	x	x
NC(=NOC(=O)Cc1ccc([N+](=O)[O-])cc1)c1ccc([N+](=O)[O-])cc1	-3.3	-2.0	x	0.2	-0.3	x	x
COc1ccccc1C(=O)OCC(=O)N1CCC(Cc2ccccc2)CC1	13.2	0.7	x	2.5	4.7	4478	-11.4
CN1/C(=C\C(=O)COC(=O)c2ccco2)C(C)(C)c2ccccc21	-1.4	-2.0	-11.6	2.4	-8.5	4503	-16.5
COc1cc(C(=O)NCC(=O)N/N=C(/C)c2ccc3c(c2)CCCC3)cc(OC)c1OC	x	x	-6.6	x	x	3558	-27.1
CCN(CC)CCN1C(=O)C(=O)/C(=C(/O)c2ccc(Cl)cc2)C1c1ccncc1 (stereo unspecified)	0.8	2.6	x	1.5	1.9	2353	-3.2
N#C/C(=C\c1cn(Cc2cccc(F)c2)c2ccccc12)C(=O)NCc1ccco1	-5.4	-0.3	-10.2	-3.0	-12.6	1938	-24.1
O=C1CCN(CCCc2ccccc2)CCN1CCO	-3.3	2.2	14.2	1.8	1.4	2945	-23.8
COc1ccccc1C(=O)N/C(=N\c1nc(C)cc(C)n1)Nc1ccccc1	0.8	7.0	x	23.2	-14.4	x	x
CCc1nnc(NC(=O)c2cc(S(=O)(=O)N3CCCCC3)ccc2C)s1	5.6	-5.0	x	4.2	4.7	8270	-20.9
C=CCn1cc(C(=O)NCc2ccco2)c(=O)c2cc(S(=O)(=O)N3CCCCCC3)ccc21	10.5	5.6	2.9	6.1	-5.8	16902*	-19.9
Cc1ccc(C(C(=O)NC2CCCCC2)N(CCCN2CCOCC2)C(=O)c2snc(C(N)=O)c2N)cc1 (stereo unspecified)	-10.8	12.6	-5.1	0.3	-1.3	3748	-8.2
Cc1ccc(Cl)cc1-c1ccc(C=Nc2ccc(N3CCOCC3)cc2)o1	-1.0	-8.5	-8.1	-0.7	-4.9	1975	-21.3
CCC/C(=N/NC(=O)c1cccc(Cl)c1)c1ccccc1	x	x	4.8	x	x	2130	-11.0
COc1cccc(/C=N/n2c(-c3cccs3)n[nH]c2=S)c1	x	x	1.6	x	x	3699	-0.7
COCCCn1c(SCc2nc3ccccc3c(=O)[nH]2)nc2ccccc2c1=O	1.4	2.7	-28.8	1.3	2.4	3792	-3.8
CCN(CC(=O)NC(=O)NC1CCCCC1)Cc1nc2ccccc2c(=O)[nH]1	9.1	1.4	1.0	-15.1	-6.7	2452	-7.3
Cc1ccc(S(=O)(=O)N2CCOCC2)cc1C(=O)OCC(=O)c1ccc(Br)cc1	6.3	11.2	x	-2.4	-6.8	6548	-7.3
O=C(CNC(=O)c1cccs1)NCCN1CCN(Cc2ccccc2)CC1	4.9	4.1	2.4	2.9	6.8	7323	-32.7
NC(=O)NC(=O)COC(=O)c1ccc(OC(F)(F)F)cc1	-1.0	-1.7	-2.3	2.2	3.0	1976	-5.3
COc1ccc2nc(N3CCCC3)[nH]c2c1	13.8	5.6	1.5	5.6	4.8	24269*	-81.4
O=C1NC(=O)C2(Cc3ccccc3N3CCCC32)C(=O)N1c1cccc(Cl)c1 (stereo unspecified)	5.8	5.3	-1.0	6.5	-6.9	20287*	-16.6
Cc1ccc(S(=O)(=O)NCC(=O)N(CC(=O)NC(C)(C)C)Cc2cccs2)cc1	-0.2	-0.8	-4.4	5.9	5.3	23533*	36.3
Cc1ccc(C)c(Nc2ncccc2C(=O)NCc2cccs2)c1	10.2	10.9	4.7	-10.2	3.8	2064	-6.0
CSc1oc(-c2cccs2)nc1S(=O)(=O)c1ccccc1	16.5	14.5	-6.0	7.5	15.4	5169	x
CCc1ccc(CNC(=O)c2ccc(OC3CCN(C(C)=O)CC3)c(OC)c2)nc1	-0.3	-0.1	4.0	3.8	8.3	4201	2.5
CCn1c(NC(=O)c2cccs2)c(-c2cccs2)c(=O)c2ccccc21	4.9	7.1	-0.1	1.9	-3.7	20705*	0.6
Brc1cc2c(cc1C1OCCO1)OCO2	5.4	18.1	x	3.8	-2.3	2990	-8.3
COc1ccc(CC(=NO)c2ccc(OC)cc2)cc1	12.3	17.4	x	7.2	9.9	x	x
CCOC(=O)C1CCN(C(=O)CCc2nnc3ccc(N4CCC(C)CC4)nn23)CC1	12.0	8.0	10.1	3.7	12.4	4830	-24.8
CCOC(=O)N1CCC(N(CCOC)C(=O)Nc2ccc(Cl)c(Cl)c2)CC1	7.1	10.3	0.9	-3.5	0.9	9684	2.7
Oc1ccccc1C=NNc1ncc(Br)cn1	0.3	6.9	x	10.1	-5.6	x	x
Cc1cc2nnc(SC(C)C#N)n2c2ccccc12 (stereo unspecified)	1.1	0.5	-2.6	2.8	-3.3	9317	-8.9
CC(C)CN(C(=O)C(C)N1C(=O)c2ccccc2C1=O)c1c(N)n(Cc2ccccc2)c(=O)[nH]c1=O (stereo unspecified)	-0.7	-4.9	1.2	0.9	5.1	5277	1.0
CCN(CC)C(=O)c1cc2c(=O)c3cc(Cl)ccc3oc2nc1C	2.3	16.4	2.1	8.5	5.2	4263	-35.6
O=C(NC1CCCCC1)N1CCN(C(=O)c2ccco2)CC1	-4.8	-2.6	-20.5	2.9	3.1	10561	x
CC1CN(Cc2nc3c(c(=O)[nH]c(=O)n3C)n2CCCc2ccccc2)CC(C)O1 (stereo unspecified)	5.1	2.4	-6.1	5.5	2.8	6070	-15.5
COc1cc(NC(=O)CSc2nc(=O)n(CCN3CCOCC3)c3c2CCCC3)cc(OC)c1	8.5	-0.5	-2.2	4.5	16.7	4599	-3.9
CCOC(=O)c1ccc(NC(=O)c2n[nH]c(=O)c3ccccc23)cc1	9.3	7.8	-1.9	7.0	6.8	2226	-33.6
COCCNc1nnc(SCC(=O)NC(=O)c2ccc(Cl)cc2)s1	5.0	2.9	x	4.9	8.0	9004	-20.5
O=C(NNc1ccc(F)cc1)c1c(F)cccc1Cl	9.2	6.0	4.5	4.5	6.6	x	7.0
COc1ccc(N2CCN(c3nc(=S)n(-c4ccccc4)c(C)c3C(C)=O)CC2)cc1	12.9	7.0	5.8	2.2	0.1	4947	-7.0

Shown with values under each structure: entries from further up
Order of values: Mtb hypoxia inh, Mtb hypoxia inh growth, BJeLR lethal, RN4220 kill, ugtP null kill, Autofluor counter, PrP UTR inh
> Cc1cc2nnc(SC(C)C#N)n2c2ccccc12 (stereo unspecified)
→ 1.1, 0.5, -2.6, 2.8, -3.3, 9317, -8.9
> CC(C)CN(C(=O)C(C)N1C(=O)c2ccccc2C1=O)c1c(N)n(Cc2ccccc2)c(=O)[nH]c1=O (stereo unspecified)
→ -0.7, -4.9, 1.2, 0.9, 5.1, 5277, 1.0
> CCN(CC)C(=O)c1cc2c(=O)c3cc(Cl)ccc3oc2nc1C
→ 2.3, 16.4, 2.1, 8.5, 5.2, 4263, -35.6
> O=C(NC1CCCCC1)N1CCN(C(=O)c2ccco2)CC1
→ -4.8, -2.6, -20.5, 2.9, 3.1, 10561, x
> CC1CN(Cc2nc3c(c(=O)[nH]c(=O)n3C)n2CCCc2ccccc2)CC(C)O1 (stereo unspecified)
→ 5.1, 2.4, -6.1, 5.5, 2.8, 6070, -15.5
> COc1cc(NC(=O)CSc2nc(=O)n(CCN3CCOCC3)c3c2CCCC3)cc(OC)c1
→ 8.5, -0.5, -2.2, 4.5, 16.7, 4599, -3.9
> CCOC(=O)c1ccc(NC(=O)c2n[nH]c(=O)c3ccccc23)cc1
→ 9.3, 7.8, -1.9, 7.0, 6.8, 2226, -33.6
> COCCNc1nnc(SCC(=O)NC(=O)c2ccc(Cl)cc2)s1
→ 5.0, 2.9, x, 4.9, 8.0, 9004, -20.5
> O=C(NNc1ccc(F)cc1)c1c(F)cccc1Cl
→ 9.2, 6.0, 4.5, 4.5, 6.6, x, 7.0
> COc1ccc(N2CCN(c3nc(=S)n(-c4ccccc4)c(C)c3C(C)=O)CC2)cc1
→ 12.9, 7.0, 5.8, 2.2, 0.1, 4947, -7.0

Following part:
SMILES	Mtb hypoxia inh	Mtb hypoxia inh growth	BJeLR lethal	RN4220 kill	ugtP null kill	Autofluor counter	PrP UTR inh
CCOC(=O)c1cccc(NC(=O)CSc2nnc(COc3ccccc3)n2CC)c1	2.6	0.3	2.4	6.6	10.8	u	-4.8
COc1ccc(Br)cc1/C=N/NC(=O)Cn1nnnc1N	x	x	1.0	x	x	4113	-29.4
O=C(Nc1ccc2ccccc2c1)c1cccc(F)c1	13.0	17.6	-10.4	1.3	-5.0	3738	-49.7
COc1ccc(N(CC(=O)N/N=C/c2ccc(C(=O)O)cc2)S(=O)(=O)c2ccc(NC(C)=O)cc2)cc1	x	x	7.4	x	x	3901	2.1
COc1ccc(S(=O)(=O)N2CCN(C(=O)C3CCCO3)CC2)cc1 (stereo unspecified)	10.4	-6.5	-1.3	0.9	6.0	5630	-19.5
COc1ccccc1C(=O)NNC(=O)c1cccc(O)c1	4.1	1.5	0.9	3.1	1.1	3408	-40.7
C(=NN1CCN(c2ccccn2)CC1)c1ccccn1	17.6	9.0	x	4.3	5.6	x	x
CC(Sc1n[nH]c(-c2cccs2)n1)C(=O)N1CCCC1 (stereo unspecified)	10.1	3.4	x	10.2	-5.7	3425	-12.8
